MT1-MMP act inh – blocks activation of human MT1-MMP; P50281; HT1080 RFP-PRO-GFP cells, GFP/RFP ratio fluorescence, overnight; percent of plate control window, DMSO zero; GFP/RFP ratio change, % at 20 µM; hit rate 0.061% among 360,000; AID 651647;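 active means GFP/RFP ratio change of at least 30% with cell ATP level not reduced by more than half and red fluorescence within 50% of control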; further: strong numbers were not always called active
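Assay system: HT1080 RFP-PRO-GFP cells. Benchmarks: DMSO vehicle wells and RFP-L50D-GFP reporter cell wells. Times: overnight cell settling, then overnight compound exposure, 37 °C, 5% CO2. Compound: 20 µM single dose, 1% DMSO. Read-out basis: GFP/RFP fluorescence ratio.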
CSC inhib – blocks cancer stem cells. cancer stem cell-like cells viability, luminescence. inhibition, % at 7.5 µM. hit rate 1.1% among 300,000;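 active means mean at 75% or more and at least half the replicates too; inconclusive means mean and replicates disagree; tested in HMLE shEcad cells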;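 further: 0% = median of negative and 100% = median of positive control wells; the first replicate is given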
HIV Env fusion – blocks HIV Env-driven cell-cell fusion. HeLa-JRFL Env/CEM21 cell fusion, luciferase. inhibition, % at 12.3 µM. hit rate 1.1% among 360,000;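 active means mean replicate inhibition score of at least 50 and every replicate individually at or above 50; inconclusive means only one of the two criteria met; inactive means mean below 50 and not all replicates reaching 50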;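 further: 0% = plate neutral controls and 100% = maraviroc near 300 nM; one replicate is shown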
eIF4H FP inh – inhibitors of RNA binding by human eIF4H. eIF4H fluorescence polarization binding assay. hit rate 0.94% among 290,000. inhibition, % at 35 µM. Q15056;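 active means 50% or more with normal probe brightness, or confirmed in later tests; inconclusive means above 50% with abnormal brightness, or retests that disagree; inactive means below 50% or failed in later tests; about a fifth of its hits are not listed in these tables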;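 further: calls also rest on retests at 20 µM and on dose response follow-up; 0% = protein and probe with vehicle and 100% = probe without protein; strong numbers were not always called active; many hits fall short of the cut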
PABP polyA inh – blocks human PABP binding to poly(A) RNA; P11940; fluorescence polarization; inhibition, % at 35 µM; hit rate 1% among 290,000; AID 2014;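 active means 50% or more with normal probe brightness, or confirmed in later tests; inconclusive means above 50% with abnormal brightness, or retests that disagree; inactive means below 50% or failed in later tests; about a fifth of its hits are not listed in these tables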;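 further: calls also rest on retests at 20 µM and on dose response follow-up; controls were probe without protein and protein plus probe with vehicle; some compounds called inactive have numbers as strong as hits; many hits fall short of the cut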
Rce1 inhib – inhibitors of yeast Ras-converting enzyme | hit rate 0.27% among 290,000 | yeast membranes, quenched prenylated peptide cleavage fluorescence | calls only | Q03530;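 active means fall in fluorescence gain of 50% or more versus controls, with final raw signal at or below 3038400; inconclusive means same 50% fall but final raw signal above 3038400; inactive means fall in fluorescence gain under 50%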;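 further: plate controls were neutral control wells for no effect and wells lacking membranes for full effect; tested at 10 µM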
Target sequence (Q03530 whole entry, looked up): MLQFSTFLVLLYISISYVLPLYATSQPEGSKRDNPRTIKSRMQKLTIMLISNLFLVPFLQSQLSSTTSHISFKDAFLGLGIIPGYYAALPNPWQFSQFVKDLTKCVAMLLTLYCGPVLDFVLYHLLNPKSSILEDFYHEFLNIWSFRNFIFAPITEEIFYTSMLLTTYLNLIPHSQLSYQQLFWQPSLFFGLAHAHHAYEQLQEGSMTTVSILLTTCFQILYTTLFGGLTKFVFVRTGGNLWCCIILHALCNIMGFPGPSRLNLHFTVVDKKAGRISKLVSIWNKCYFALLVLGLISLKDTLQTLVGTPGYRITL
UUG fidelity – modulators of start codon recognition fidelity in yeast; hit rate 0.13% among 350,000; activity score, % at 18.7 µM; S. cerevisiae UUG-firefly luciferase reporter, luminescence/redox ratio;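 active means replicate mean at a twofold rise or more, about +100% in these data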;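 further: firefly luciferase made from a UUG start codon reports start codon fidelity; reporter light over untreated wells divided by growth signal over untreated wells; some hits fall short of that in this replicate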
eIF4H FP inh retest – further read-out of eIF4H FP inh, marked with its call; inhibition, %; compound at 20 µM; confirmation average;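 mean of two retest wells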
PABP polyA inh retest – second read-out of PABP polyA inh, no call of its own (marks repeat the call); inhibition, %; compound at 20 µM; confirmation repeats;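 mean of two retest wells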
MT1-MMP act inh RFP – second read-out of MT1-MMP act inh, no call of its own (marks repeat the call); RFP signal change, %; measured here: RFP expression control read;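 0 = vehicle wells; hits needed this value within 50% of zero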
* hit, by the source's call; i = inactive; ? = inconclusive; nt = no result given. A portion of the library; rates above refer to the full screens.

SMILES | MT1-MMP act inh | MT1-MMP act inh RFP | CSC inhib | HIV Env fusion | eIF4H FP inh | PABP polyA inh | Rce1 inhib | UUG fidelity | others
CCCCCCn1c(SCC(=O)Nc2cc(C)on2)nc2ccccc2c1=O | -5 | -5 | 37 | -59 | -4 | -1 | i | nt
COc1ccc(CN2CN(C3CCCC3)CSC2=S)cc1 | 3 | 5 | 27 | 5 | 3 | 3 | i | -20
COc1ccc(N2CCN(CC(=O)Nc3cc(C)cc(C)c3)CC2)cc1 | 2 | -4 | -2 | -18 | -10 | -16 | i | -2
CCOc1ccc(/C(CCC(=O)O)=N/NC(=O)c2cccc(S(=O)(=O)Nc3ccccc3OC)c2)cc1 | 0 | 2 | 1 | -17 | nt | nt | nt | -3
CCOc1ccccc1NC(=O)Cn1nnc(C(=O)Nc2ccccc2Cl)c1N | 1 | -1 | nt | nt | 1 | 0 | i | -8
Cc1ccc2c(c1C)NC(=O)CC(c1ccccc1O)=N2 | 1 | -1 | -5 | -34 | 0 | -14 | i | nt
COc1ccc(-c2nnc(SCC(=O)c3cccs3)o2)c(OC)c1 | 0 | 0 | -5 | -6 | -12 | -3 | i | -13
CCOc1cc(/C=N\NC(=O)Cn2nnc3ccccc32)ccc1O | 5 | 8 | -7 | 5 | -3 | 10 | i | nt
COC(=O)c1oc2ccc(Cl)cc2c1NC(C)=O | -1 | 0 | -8 | -27 | 6 | 4 | i | -14
O=C(Nc1ccc(F)c(Cl)c1)Nc1csc2ccccc12 | -8 | -27 | 77* | 35 | 0 | 0 | i | -12
COc1ccc(-c2nc(C#N)c(NC(C)C)o2)cc1 | 4 | -8 | nt | nt | -5 | -1 | ? | -11
Cc1nc2oc3ccccc3c(=O)c2cc1C(=O)O | 6 | 7 | 3 | 3 | -1 | 8 | i | -3
O=[N+]([O-])c1ccc(-n2nnnc2CN2CCOCC2)cc1 | -1 | 3 | 8 | -2 | -8 | -5 | i | nt
CCSc1ccc2nnc(-c3cccs3)n2n1 | nt | nt | nt | -13 | -9 | 2 | i | nt
Cc1cccc(NC(=O)[C@@H]2CCCN2C(=O)OC(C)(C)C)c1 | -2 | 1 | 1 | -10 | -10 | -13 | i | -17
COc1ccc(NC(=O)CN(C)C(=O)C(CCSC)NC(=O)c2ccccc2)cc1 (stereo unspecified) | 1 | 0 | -7 | 12 | -1 | 2 | i | -8
COc1ccc(C(C)=O)c(Oc2ccc(S(=O)(=O)N3CCOCC3)cn2)c1 | -7 | 0 | nt | -16 | nt | nt | nt | -9
COc1ccc(NC(=O)CN2C(=O)/C(=C3\SC(=S)N(CCC(=O)O)C3=O)c3ccccc32)cc1 | -2 | 1 | 6 | nt | 106 | 11 | i | -17 | eIF4H FP inh retest=29;PABP polyA inh retest=-6
O=[N+]([O-])c1cc([N+](=O)[O-])c2c(=Nc3ccccc3)n(-c3ccccc3)n(O)c2c1 | 11 | -1 | -8 | 10 | 17 | -1 | i | nt
Cc1cc2c(=O)[nH]c(Cc3ccccc3)nc2s1 | 0 | 3 | -4 | 5 | -8 | 4 | i | -16

The list goes on, overlapping the part above by two compounds.
SMILES | MT1-MMP act inh | MT1-MMP act inh RFP | CSC inhib | HIV Env fusion | eIF4H FP inh | PABP polyA inh | Rce1 inhib | UUG fidelity | others
O=[N+]([O-])c1cc([N+](=O)[O-])c2c(=Nc3ccccc3)n(-c3ccccc3)n(O)c2c1 | 11 | -1 | -8 | 10 | 17 | -1 | i | nt
Cc1cc2c(=O)[nH]c(Cc3ccccc3)nc2s1 | 0 | 3 | -4 | 5 | -8 | 4 | i | -16
COc1cccc(-c2nc(CS(=O)(=O)CC(=O)N3CCOCC3)c(C)o2)c1 | 1 | -1 | -2 | 3 | -2 | 2 | i | -10
COc1ccc(CCNc2ccc(C)cc2)cc1 | 9 | 3 | -10 | nt | 4 | 2 | i | -14
CN(CC(=O)Nc1cccc(F)c1)C(=O)CSc1ccccc1 | -2 | 0 | 17 | 12 | nt | nt | i | -13
CN1/C(=C/C=C(/C#N)C(N)=O)C(C)(C)c2ccccc21 | -33 | -9 | nt | nt | 55* | 42 | i | -10 | eIF4H FP inh retest=67*;PABP polyA inh retest=11
Cn1nc(-c2ccccc2)c(CO)c1Sc1ccccc1 | 2 | 0 | nt | -7 | 1 | -2 | i | nt
Cc1ccccc1NS(=O)(=O)c1ccc(C(=O)NCC(C)(C)N2CCOCC2)cc1 | -4 | -17 | nt | 37 | nt | nt | i | -5
Cc1ccc2cc(C(c3nnnn3Cc3ccccc3)N3CCc4ccccc43)c(=O)[nH]c2c1 (stereo unspecified) | -9 | 4 | -5 | 14 | 6 | 42 | i | -2
CCC(CC)CN1CCN=C1Nc1ccccc1 | 3 | -1 | 2 | -23 | nt | nt | nt | -17
COC(=O)c1cc(OC)c(OC)cc1NC(=S)N1CCN(c2ccccc2)CC1 | 9 | 1 | 7 | nt | 1 | 0 | i | -10
CN(C(=O)CC1C(=O)NCCN1Cc1ccc(F)cc1)C1CCOCC1 (stereo unspecified) | 0 | -1 | -8 | 13 | -1 | -11 | i | -6
O=C(COc1ccccc1)NNC(=O)c1cc2ccccc2o1 | -2 | 1 | -13 | nt | -2 | 2 | i | -6
O=C(O)c1cccc(Cn2cc(Cl)cn2)c1 | 1 | 0 | -3 | nt | 0 | 13 | i | -2
Cc1cc2nc(C(F)(F)F)[nH]c(=O)n2n1 | 0 | 5 | 2 | nt | -8 | 26 | i | -19
Cc1ccc(C(=O)COC(=O)CCc2nc3ccccc3[nH]c2=O)cc1C | 8 | 3 | -5 | 30 | -10 | 2 | i | -12
Cc1ncc(C[n+]2csc(C)c2C)c(N)n1 | 7 | 9 | -6 | -6 | 15 | 47 | i | nt
COc1ccccc1N(C)S(=O)(=O)c1ccc(C(=O)OCC(=O)N(C(C)C)C(C)C)cc1 | -5 | -3 | -15 | -22 | -9 | 6 | i | -5
Cn1cnnc1SCC(=O)NNC(=O)COc1ccc(Br)cc1 | 4 | 5 | 15 | 10 | 8 | 3 | nt | -5
CCC(OCC(O)CN1CCN(CCN2C(=O)c3cccc4cccc(c34)C2=O)CC1)c1ccccc1 (stereo unspecified) | 3 | -11 | 40 | 2 | 1 | 12 | i | nt
O=C(CNc1ccc(F)cc1Cl)Nc1cccc(S(=O)(=O)N2CCCCC2)c1 | 6 | -2 | nt | -3 | nt | nt | nt | -21
O=C(NCc1ccccn1)C1CCN(Cc2cccc(OCc3ccccc3)c2)CC1 | 2 | 1 | 1 | 5 | 0 | -3 | i | -4
O=[N+]([O-])c1cccc(-c2ccn[nH]2)c1 | -1 | 5 | -6 | -16 | -12 | -6 | nt | nt
CCN1CCN(c2ccc(NC(=O)COc3ccc(Cl)cc3C)cc2)CC1 | 6 | -5 | 67 | nt | nt | nt | nt | 2
COc1cc(NC(=O)CCc2nnc3ccc(N4CCCCC4)nn23)cc(OC)c1OC | -1 | 5 | -6 | -7 | -6 | 1 | i | -1
C=CCNc1oc(-c2cccs2)nc1C#N | 0 | -4 | -12 | -67 | 1 | 8 | ? | -17
CC(=O)N1CCN(C(=O)CN2C(=O)NC(C)(c3ccc4ccccc4c3)C2=O)CC1 (stereo unspecified) | 5 | 2 | nt | 4 | nt | nt | nt | -11
Cc1ccc(NCC(=O)N/N=C\c2ccc([N+](=O)[O-])o2)cc1 | 2 | 0 | -7 | nt | -10 | -11 | i | -3
COC(=O)c1ccc(/C=N/NC(=O)C2CC(=O)N(c3ccc(F)cc3)C2)cc1 (stereo unspecified) | 3 | 1 | -12 | -12 | -6 | -2 | i | 6
CC1=NN(/C(=N\c2nnc(C)s2)Nc2ccccc2)[C@H](c2cccc3ccccc23)S1 | -2 | -2 | -2 | -2 | 8 | -6 | i | 18
Cc1cc(Cl)ccc1OCC(=O)NC(=S)Nc1ccc(Cl)cn1 | 1 | 0 | -14 | nt | -8 | 0 | i | -9
O=C(N/N=C/c1ccc(-c2ccccc2)o1)c1ccccc1O | -2 | -2 | 4 | 3 | -4 | 10 | i | nt
O=C(COc1ccccc1)NC1CCCc2ccccc21 (stereo unspecified) | 0 | -1 | 3 | nt | 6 | -11 | i | -12
O=c1c2c(-c3cccs3)csc2[nH]c(=S)n1-c1ccccc1 | 0 | 5 | -6 | nt | 24 | 3 | i | nt
C=CCc1c(C)nc(C)nc1N/N=C/c1ccc(F)cc1 | 0 | -3 | 3 | nt | -2 | 6 | i | -4
COc1ccc(OC)c(NS(=O)(=O)c2cc3c4c(c2)CCN4C(=O)CC3)c1 | 0 | 4 | nt | -15 | nt | nt | i | nt
Nc1c(Cl)c(Cl)nc(C(=O)OCC(=O)N2CCCC2=O)c1Cl | -7 | 2 | -4 | 10 | nt | nt | i | -10
CCCCn1c(-c2cccnc2)nc2cc3[nH]c(=O)c(C(C)C)nc3cc21 | -8 | 3 | 2 | -5 | 76 | 36* | i | -13 | eIF4H FP inh retest=36;PABP polyA inh retest=89*
COc1ccc(CC(=O)OC2CCCN(C)C2)cc1 (stereo unspecified) | 0 | 1 | -10 | -7 | -5 | -11 | i | nt
CCCCCCNC(=O)c1cn(CC)c2cc(N3CCN(C)CC3)c(F)cc2c1=O | -2 | -3 | 57 | -8 | 8 | 5 | i | 9
COc1ccc(C(=O)/C=C2\Sc3ccccc3N2C)cc1 | 1 | -4 | 2 | -201 | 0 | -1 | i | nt
Cc1[nH]c2ccccc2c1C(c1ccccn1)N1CCC(C(N)=O)CC1 (stereo unspecified) | -2 | 3 | -5 | nt | 8 | 9 | i | nt

Arranged by count of non-hydrogen atoms (largest number first): six of the compounds above.
SMILES | MT1-MMP act inh | MT1-MMP act inh RFP | CSC inhib | HIV Env fusion | eIF4H FP inh | PABP polyA inh | Rce1 inhib | UUG fidelity | others
Cc1ccc2cc(C(c3nnnn3Cc3ccccc3)N3CCc4ccccc43)c(=O)[nH]c2c1 (stereo unspecified) | -9 | 4 | -5 | 14 | 6 | 42 | i | -2
COc1cc(NC(=O)CCc2nnc3ccc(N4CCCCC4)nn23)cc(OC)c1OC | -1 | 5 | -6 | -7 | -6 | 1 | i | -1
Cc1ccc(C(=O)COC(=O)CCc2nc3ccccc3[nH]c2=O)cc1C | 8 | 3 | -5 | 30 | -10 | 2 | i | -12
COc1ccc(N2CCN(CC(=O)Nc3cc(C)cc(C)c3)CC2)cc1 | 2 | -4 | -2 | -18 | -10 | -16 | i | -2
CCSc1ccc2nnc(-c3cccs3)n2n1 | nt | nt | nt | -13 | -9 | 2 | i | nt
Cc1ncc(C[n+]2csc(C)c2C)c(N)n1 | 7 | 9 | -6 | -6 | 15 | 47 | i | nt

(further entries)
SMILES | MT1-MMP act inh | MT1-MMP act inh RFP | CSC inhib | HIV Env fusion | eIF4H FP inh | PABP polyA inh | Rce1 inhib | UUG fidelity | others
CCOc1cc(-c2sc(Nc3cc(C)ccc3OC)n[n+]2-c2ccccc2)ccc1OC | 3 | -7 | 45 | 0 | nt | nt | nt | -15
N#Cc1c2c(c(NCc3ccco3)n3c1nc1ccccc13)CCC2 | -4 | -1 | -10 | nt | ? | ? | i | -8
Cc1ccc(OCC(=O)Nc2ccc(N3CCN(C(=O)c4ccco4)CC3)cc2)cc1C | 1 | -12 | 36 | 13 | -8 | -2 | i | nt
COc1ccc(Nc2nnc(SCC(=O)NC3CCCC3)s2)cc1 | 1 | 2 | nt | 3 | nt | nt | nt | -19
CCCCCCCCCCCCN1[C@@H](CC(C)=O)c2cc(F)ccc2S1(=O)=O | -1 | -7 | 80* | 1 | nt | nt | i | -16

Screens: PubChem BioAssay, several laboratories
